Screens (PubChem BioAssay)
CtBP-E1A blk = qHTS Assay for Inhibitors of the CtBP/E1A Interaction | 0.49% of 340,000 active | AID 651724, 2012 | activity change, % (concentration not given with the values) | AlphaScreen GST-E1A/His-CtBP binding, 1536-well; hits give low values; control for the full effect not named in the record | CtBP / adenovirus E1A interaction (AlphaScreen); in the data active means activity change below about -65%; inconclusive means about -30% to -65%; inactive means above about -30%; note: % is set by controls: 0 for no effect and ±100 for the full control effect
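Protein mix (5X: 125 nM each GST-E1A, His-CtBP) was incubated with pinned compound 2 h at 37 deg C in dark, in 50 mM Tris pH 8.0 buffer with 300 mM NaCl. Glutathione donor and nickel acceptor beads followed; AlphaScreen signal read after 1 h.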
TRPML1 ag = qHTS for Agonists of the Human Mucolipin Transient Receptor Potential 1 (TRPML1); activation, % (no concentration beside the values); TRPML1-expressing cells, Ca2+ dye fluorescence, FDSS; host cell line not named in the record; reference of the full effect not given here; AID 624414, 2012; 0.12% of 410,000 active; in the data active = activation above about 50%; inconclusive = about 30% to 50%; inactive = below about 30%; note: 0% is about no effect; the text of the record puts the active cut at 80%
Target sequence (Q9GZU1 whole entry, looked up): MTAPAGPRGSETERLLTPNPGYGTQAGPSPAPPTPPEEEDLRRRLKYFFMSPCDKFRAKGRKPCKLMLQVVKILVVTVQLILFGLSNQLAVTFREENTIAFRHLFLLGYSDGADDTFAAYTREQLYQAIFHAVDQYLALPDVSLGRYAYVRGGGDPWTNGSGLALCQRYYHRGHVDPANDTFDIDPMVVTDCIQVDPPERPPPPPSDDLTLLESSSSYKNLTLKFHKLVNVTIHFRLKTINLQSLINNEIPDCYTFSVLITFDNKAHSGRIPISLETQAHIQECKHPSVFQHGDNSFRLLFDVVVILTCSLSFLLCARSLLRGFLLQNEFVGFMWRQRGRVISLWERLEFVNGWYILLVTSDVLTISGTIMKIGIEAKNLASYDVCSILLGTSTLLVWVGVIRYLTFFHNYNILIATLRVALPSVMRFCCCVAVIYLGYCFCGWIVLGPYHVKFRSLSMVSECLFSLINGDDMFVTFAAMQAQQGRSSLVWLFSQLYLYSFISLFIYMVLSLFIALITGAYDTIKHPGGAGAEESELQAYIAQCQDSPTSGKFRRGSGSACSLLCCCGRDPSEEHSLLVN
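In this qHTS format, compounds were pin-transferred onto Ca8-dye-loaded TRPML1-DL cells induced with Tet overnight, and intracellular Ca2+ fluorescence was recorded kinetically for 110 s after a 10 s baseline. A subsequent 4uM final 54-4 (EC80) addition followed by a second 110 s read served as the antagonist phase.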
TRPV1 PAM = HTS Assay for Compounds that Act as Potentiators of the Vanilloid Receptor 1; Transient receptor potential cation channel subfamily V member 1 (Homo sapiens), Q8NER1; TRPV1-expressing cells, Fluo-8 calcium influx, capsaicin EC20 potentiation; host cell line not named in the record; control for the full effect not named in the record; potentiation, % at 8.33 µM; 0.02% of 320,000 active; AID 540277, 2011; active means potentiation above 80%; inconclusive means 30% to 80%; inactive means below 30%; note: 0% is about no effect
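Fluo-8 calcium influx in TRPV1-expressing cells, kinetic read (ex 480/em 520 nm). Compound added and read 3 min for agonist activity, followed by capsaicin at EC20 final and 2 min further read for enhancement.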
TRPML1 inh = qHTS for Inhibitors of the Human Mucolipin Transient Receptor Potential 1 (TRPML1) | TRPML1-inducible cells, Ca2+ dye fluorescence, FDSS; hits give low values; inhibition of EC80 agonist-evoked calcium signal | AID 624415, 2012 | 0.02% of 390,000 active | activity change, negative = inhibition, % (test concentration not listed); in the data active means activity change below about -50%; inconclusive means about -30% to -50%; inactive means above about -30%;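 note: stimulus is agonist 54-4 at its EC80 concentration; % is set by controls: 0 for no effect and ±100 for the full control effect; compound concentration not given in the record; the text of the record puts the active cut at -80%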
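Tet-induced TRPML1-DL cells loaded with Ca8 no-wash calcium dye were read kinetically on FDSS. Compound addition was followed by EC80 agonist 54-4 (4 uM final); inhibition was read over 110 s.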
Six1-Eya2 blk = qHTS Assay for Inhibitors of the Six1/Eya2 Interaction; 0.56% of 360,000 active; activity change, % (test concentration not listed); AlphaScreen GST-Six1/His-Eya2 binding, biochemical; hits give low values; control for the full effect not named in the record; Homeobox protein SIX1 (Homo sapiens) + Protein phosphatase EYA2 (Homo sapiens), …; in the data active = activity change below about -65%; inconclusive = about -30% to -65%; inactive = above about -30%; note: % is set by controls: 0 for no effect and ±100 for the full control effect; compound concentration not given in the record
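Six1/Eya2 binding was read as AlphaScreen signal after compounds were pinned into GST-Six1 plus His-tagged Eya2 (5X stock 250/500 nM) in pH 8.0 Tris/NaCl/TCEP buffer, beads added, then incubated 1 h, 37 C, dark.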
D2 potentiator = Beta-Arrestin HTS for Positive Allosteric Modulators of the Human D2 Dopamine Receptor: Potentiators | D(2) dopamine receptor (Homo sapiens), P14416 | DiscoveRx D2 beta-arrestin cells, luminescence, 90 min; 100% = 57 uM dopamine signal | potentiation, % (test concentration not listed) | 0.23% of 360,000 active | AID 624464, 2012; active = potentiation of 50% or more; inconclusive = 30% to 50%; inactive = 30% or less;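 note: compound concentration not given in the record; tested on top of an EC20 dose of dopamine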
Target sequence (P14416 whole entry, looked up): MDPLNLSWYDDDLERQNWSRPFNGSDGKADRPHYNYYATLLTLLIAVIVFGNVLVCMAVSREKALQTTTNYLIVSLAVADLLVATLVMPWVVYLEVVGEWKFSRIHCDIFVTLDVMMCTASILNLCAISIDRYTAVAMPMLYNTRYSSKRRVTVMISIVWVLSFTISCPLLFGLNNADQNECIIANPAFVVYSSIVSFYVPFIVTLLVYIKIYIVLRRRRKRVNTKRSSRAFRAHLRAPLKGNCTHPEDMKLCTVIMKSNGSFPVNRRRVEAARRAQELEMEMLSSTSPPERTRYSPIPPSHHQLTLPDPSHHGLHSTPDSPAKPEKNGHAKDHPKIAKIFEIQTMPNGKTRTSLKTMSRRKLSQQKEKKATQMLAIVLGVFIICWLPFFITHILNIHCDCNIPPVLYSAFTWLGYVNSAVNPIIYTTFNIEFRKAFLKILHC
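D2 cells co-treated with compound plus 50 nM dopamine (EC20) for 90 min at 37 deg C to detect potentiation. Beta-arrestin recruitment was read as enzyme-fragment luminescence after 1 h at ambient temperature. Full response was set by 57 uM dopamine.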
* marks the source's active call; other numbers are inactive results; & = joins results of further samples. Compounds as they come; about 0.95% have a hit in one of these screens.

For COc1ccc(NC(=O)c2cc(C)cc(C)c2)cc1S(=O)(=O)N1CCCCC1 the results were CtBP-E1A blk 0.2, TRPML1 ag 1.0, TRPV1 PAM -0.9, TRPML1 inh 4.0, Six1-Eya2 blk -3.9 and D2 potentiator -1.3.
CC(=O)Nc1ccc(NC(=O)COc2ccc(S(=O)(=O)N3CCCC3)cc2)cc1 was read as CtBP-E1A blk 8.9, TRPML1 ag -0.8, TRPV1 PAM 13.5, TRPML1 inh 11.3, Six1-Eya2 blk -3.2 and D2 potentiator 4.4.
For CCOC(=O)c1sc2ncc([N+](=O)[O-])cc2c1N the results were TRPML1 ag -1.3, TRPV1 PAM -7.9, TRPML1 inh -5.8, Six1-Eya2 blk -7.4 and D2 potentiator -13.2.
Screening Cc1c([C@H]2[C@@H](CC#N)C2(C)C)c2ccccc2n1C returned CtBP-E1A blk -28.1, TRPML1 ag 1.7, TRPV1 PAM 5.2, TRPML1 inh 37.9, Six1-Eya2 blk -23.9 and D2 potentiator -1.2.
`CCOc1ccc(NC(=O)C2CCCN(S(=O)(=O)c3ccc4c(c3)CC(C)N4C(C)=O)C2)cc1` (stereo not given) gave CtBP-E1A blk 3.9, TRPML1 ag 0.0, TRPV1 PAM -16.1, TRPML1 inh 20.8, Six1-Eya2 blk -0.6 and D2 potentiator -9.5.
`Cc1nn(CCCC(=O)Nc2cnn(Cc3ccc(F)cc3)c2)c(C)c1[N+](=O)[O-]` gave CtBP-E1A blk 2.5, TRPML1 ag 0.6, TRPV1 PAM -14.3, TRPML1 inh -10.0, Six1-Eya2 blk 2.2 and D2 potentiator 4.6.
CCOCCn1c(-c2ccccc2)nc2ccccc21 was read as CtBP-E1A blk 1.2, TRPML1 ag 0.5, TRPV1 PAM -16.9, TRPML1 inh -0.8, Six1-Eya2 blk 5.5 and D2 potentiator -3.3.
For COCCn1c(=O)[nH]c(=O)c2c1nc(-c1ccc(-c3ccc(Cl)cc3[N+](=O)[O-])o1)n2Cc1ccccc1 the results were CtBP-E1A blk -5.7, TRPML1 ag 2.4, TRPV1 PAM 7.3, TRPML1 inh 19.8, Six1-Eya2 blk -18.2 and D2 potentiator 3.0.
Screening CCOC(=O)c1c(-c2ccccc2)csc1NC(=O)c1cc(-c2ccccc2OC)on1 returned CtBP-E1A blk -0.1, TRPML1 ag -0.5, TRPML1 inh -6.8, Six1-Eya2 blk -2.6 and D2 potentiator -4.9.
Screening COc1ccc(C(C(=O)NCc2ccccc2)N(C(=O)c2snc(C(N)=O)c2N)c2ccccc2OC)cc1 (stereo not given) returned CtBP-E1A blk 0.2, TRPML1 ag 1.0, TRPV1 PAM -6.4, TRPML1 inh 43.6, Six1-Eya2 blk 1.1 and D2 potentiator -3.9.
For COC(=O)c1ccc2[nH]c3cccc(/C(=C/c4ccccc4)c4ccccc4)c3c2c1 the results were CtBP-E1A blk 1.6, TRPML1 ag -0.6, TRPV1 PAM 13.6, TRPML1 inh -22.1, Six1-Eya2 blk 2.8 and D2 potentiator 8.1.
COc1cccc(CNC(=O)CSCc2cnn(-c3ccccc3)c2-n2cccc2)c1OC was read as CtBP-E1A blk -0.7, TRPML1 ag 1.4, TRPV1 PAM -11.3, TRPML1 inh -7.8, Six1-Eya2 blk -11.3 and D2 potentiator -3.5.
CNC(=O)C(=O)Nc1cc2c3c(c1)CCC(=O)N3CCC2 was read as TRPML1 ag -0.2, TRPV1 PAM -8.2, TRPML1 inh -4.0, Six1-Eya2 blk 7.9 and D2 potentiator -1.8.
For Cc1noc(NS(=O)(=O)c2ccc(NC(=O)CSc3nnc4c(n3)[nH]c3ccccc34)cc2)c1C the results were CtBP-E1A blk -90.2*, TRPML1 ag 0.0, TRPV1 PAM 0.3, TRPML1 inh -2.6, Six1-Eya2 blk -88.5* and D2 potentiator 0.8.
CC(Oc1ccccc1F)C(=O)NN (stereo not given) was read as CtBP-E1A blk 1.1, TRPML1 ag -0.4, TRPV1 PAM 5.9, TRPML1 inh -1.4, Six1-Eya2 blk 2.6 and D2 potentiator -12.7.
For CCOc1ccc(-c2nc(CCl)cs2)cc1 the results were CtBP-E1A blk -7.5, TRPML1 ag 0.5, TRPV1 PAM 4.5, TRPML1 inh 31.0, Six1-Eya2 blk 8.8 and D2 potentiator -10.5.
CCOc1ccc(/C=C/C(=O)Nc2ccc(OC)cc2[N+](=O)[O-])cc1 was read as CtBP-E1A blk -8.2, TRPML1 ag 1.2, TRPV1 PAM -1.3, TRPML1 inh -14.4, Six1-Eya2 blk -8.6 and D2 potentiator 4.2.
Cc1ccccc1-c1nc(CN2CCC(C(=O)NCC3CCCO3)CC2)c(C)o1 (stereo not given) was read as CtBP-E1A blk 2.9, TRPML1 ag 0.4, TRPV1 PAM -4.5, TRPML1 inh -5.8, Six1-Eya2 blk 0.4 and D2 potentiator -20.9.
`CC(=O)N1CCCc2cc(S(=O)(=O)N3CCCC(C(=O)Nc4ccc(C)cc4C)C3)ccc21` (stereo not given) gave CtBP-E1A blk 3.4, TRPML1 ag -0.6&0.2, TRPV1 PAM 2.8, TRPML1 inh 3.4&-0.2, Six1-Eya2 blk 0.7 and D2 potentiator -8.1.
Screening COc1ccc(OC)c(/C=C/C(=O)OCC(=O)Nc2nnc(-c3ccccc3)o2)c1 returned TRPML1 ag 0.0, TRPV1 PAM 7.2, TRPML1 inh -0.3, Six1-Eya2 blk inconclusive and D2 potentiator -7.1.
Screening CCCn1c(=O)c(C(=O)NCCCc2ccccc2)c(O)c2ccccc21 returned CtBP-E1A blk 26.0, TRPML1 ag 0.4, TRPV1 PAM 7.5, TRPML1 inh -10.8, Six1-Eya2 blk 32.7 and D2 potentiator -5.9.
`O=C(Nc1ccc(F)cc1)/C(=C1/CCCCCN1)[N+](=O)[O-]` gave CtBP-E1A blk 9.8, TRPML1 ag -0.5, TRPV1 PAM 1.9, TRPML1 inh 4.2, Six1-Eya2 blk 2.9 and D2 potentiator 3.1.
For Cc1ccc(Nc2ccc(C(=O)N3CCCC3)cn2)c(C)c1 the results were CtBP-E1A blk 3.0, TRPML1 ag 1.1, TRPV1 PAM -0.5, TRPML1 inh 6.8, Six1-Eya2 blk 3.2 and D2 potentiator -0.6.
`N#C/C(=C/c1cccc(C(F)(F)F)c1)c1nc(CCN2C(=O)c3ccccc3C2=O)cs1` gave CtBP-E1A blk -4.5, TRPML1 ag -0.8, TRPV1 PAM 5.9, TRPML1 inh -5.7, Six1-Eya2 blk -2.0 and D2 potentiator -19.9.
Screening C=CCn1c(SCC(=O)O)nnc1-c1cccs1 returned CtBP-E1A blk 3.2, TRPML1 ag -0.3, TRPV1 PAM 1.9, TRPML1 inh -6.8, Six1-Eya2 blk 4.2 and D2 potentiator 3.8.
Screening O=C1CCC(C(=O)OCC(=O)Nc2ccc(OC(F)F)cc2)=NN1 returned CtBP-E1A blk 2.6, TRPML1 ag -0.3, TRPML1 inh -12.1, Six1-Eya2 blk 3.7 and D2 potentiator -6.4.
CCN(CC#CCC(O)(c1ccccc1)c1ccccc1)C(C)C was read as CtBP-E1A blk 3.8, TRPML1 ag 2.3, TRPV1 PAM -6.0, TRPML1 inh -8.9, Six1-Eya2 blk 3.3 and D2 potentiator -19.5.
`Cc1oc(-c2cccc(Br)c2)[n+]([O-])c1C` gave CtBP-E1A blk 9.3, TRPML1 ag 1.5, TRPV1 PAM -4.5, TRPML1 inh -1.4, Six1-Eya2 blk 19.5 and D2 potentiator -5.0.
For CC(=O)Nc1cccc(-c2csc(C(C)(O)c3ccccc3)n2)c1 (stereo not given) the results were CtBP-E1A blk 5.9, TRPML1 ag -0.7, Six1-Eya2 blk 0.8 and D2 potentiator -6.8.
CCc1cccc(C)c1N(C(=O)Cn1c(COC)nc2ccccc21)C(C)COC (stereo not given) was read as CtBP-E1A blk -2.5, TRPML1 ag -0.4, TRPV1 PAM 14.8, TRPML1 inh 2.1, Six1-Eya2 blk 9.2 and D2 potentiator -3.2.

Gathered by group, those above with a thiophene ring, fused or not
For CCOC(=O)c1sc2ncc([N+](=O)[O-])cc2c1N the results were TRPML1 ag -1.3, TRPV1 PAM -7.9, TRPML1 inh -5.8, Six1-Eya2 blk -7.4 and D2 potentiator -13.2.
Screening CCOC(=O)c1c(-c2ccccc2)csc1NC(=O)c1cc(-c2ccccc2OC)on1 returned CtBP-E1A blk -0.1, TRPML1 ag -0.5, TRPML1 inh -6.8, Six1-Eya2 blk -2.6 and D2 potentiator -4.9.
Screening C=CCn1c(SCC(=O)O)nnc1-c1cccs1 returned CtBP-E1A blk 3.2, TRPML1 ag -0.3, TRPV1 PAM 1.9, TRPML1 inh -6.8, Six1-Eya2 blk 4.2 and D2 potentiator 3.8.

Next records follow.
Cc1cc(NC(=O)c2noc3c2CCCCC3)nn1Cc1ccc(Cl)cc1 was read as CtBP-E1A blk 3.5, TRPML1 ag 1.5, TRPV1 PAM -10.2, TRPML1 inh 70.5, Six1-Eya2 blk 3.3 and D2 potentiator -2.7.
Screening CCN(CC)S(=O)(=O)c1ccc(/C(O)=C2/C(=O)C(=O)N(CCOC)C2c2ccccc2)cc1 (stereo not given) returned CtBP-E1A blk 14.1, TRPML1 ag -1.0, TRPV1 PAM 1.4, TRPML1 inh -6.5, Six1-Eya2 blk 6.9 and D2 potentiator -1.5.
`CCOC(=O)c1ccc2c(c1)nc(COc1ccc(OC)cc1)n2CC` gave CtBP-E1A blk -2.3, TRPML1 ag 2.3, TRPV1 PAM inconclusive, TRPML1 inh -4.5, Six1-Eya2 blk 4.2 and D2 potentiator 13.7.
O=S(=O)(c1cnc[nH]1)N1CCN(c2ccc(F)cc2)CC1 was read as CtBP-E1A blk -15.6, Six1-Eya2 blk 2.1 and D2 potentiator -5.6.
COC(=O)CN1C(=S)N(c2ccc(F)cc2)C(=O)C1CC(=O)Nc1ccc(F)cc1 (stereo not given) was read as CtBP-E1A blk 0.5, TRPML1 ag -0.1, TRPV1 PAM -14.2, TRPML1 inh -14.0, Six1-Eya2 blk 66.0 and D2 potentiator -3.4.
For CN(C)CCNC(=S)Nc1ccccc1C(C)(C)C the results were CtBP-E1A blk 2.6, TRPML1 ag -0.5, TRPV1 PAM 2.5, TRPML1 inh 3.8, Six1-Eya2 blk 9.1 and D2 potentiator -8.3.
COc1ccc(OC)c(S(=O)(=O)N2CCCc3ccccc32)c1 was read as CtBP-E1A blk 5.1, TRPML1 ag 0.4, TRPV1 PAM 26.4, TRPML1 inh 1.8, Six1-Eya2 blk -1.7 and D2 potentiator -1.8.
